Source: PubChem BioAssay
Ab BasE inh – BasE siderophore biosynthesis inhibition | purified BasE, fluorescence polarization binding displacement | 84,000 tested, 0.1% active | inhibition, % (no concentration beside the values);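 active means both replicates above 25% with normal brightness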;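 further: 0% = negative plate control signal and 100% = positive plate control signal; stock transfer was 100 nL into about 30 µL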
LANA-nucl inh – inhibitors of KSHV LANA binding to nucleosomes | z-score (concentration not given with the values) | FITC-LANA1-23 / chicken nucleosome fluorescence polarization; stronger effect = lower value | 51,000 tested, 0.3% active;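 active means both repeat wells score below -2 in polarization z-score versus plate sample wells, excluding overly bright wells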;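 further: 100 nL library stock added to about 30 µL; numbers are from one replicate; some results filed as inactive read as strong as hits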
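test system = FITC-LANA peptide and chicken nucleosomes | amount = 240 nM purified chicken nucleosomes (480 nM peptide binding sites), final | reagent = 50 nM FITC-LANA1-23 probe | medium = TEN-BT buffer, pH 7.5 | doses = single compound addition by pin transfer, 100 nL per well | timing = 10–45 min, room temperature | detection = fluorescence polarization | repeats = duplicate plates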
Active calls of the source: *; & = joins results of further samples.

How did Clc1cc(Cl)cc(Oc2nc(-c3ccccc3)ns2)c1 do in these assays?
Ab BasE inh: 3.3

Results for Cc1noc(C)c1COC(=O)c1ccc2[nH]c3c(c2c1)CCCC3 ?
Ab BasE inh: -0.7

Results for CN(C)c1ccc(C2C=C(c3ccccc3)Nc3ncnn32)cc1 (stereo not given) ?
Ab BasE inh: -4.8

How did CCSC1=NC2(CCCCC2)Nc2ccccc21 do in these assays?
Ab BasE inh: 0.4

How did CCOc1ccc2[nH]c(=O)c(CN(CCOC)C(=O)NC3CCCCC3)cc2c1 do in these assays?
Ab BasE inh: 0.9; LANA-nucl inh: 0.85

What do the screens show for `N/C(=N\c1nc2c(c(=O)[nH]1)CCC2)Nc1ccccc1C(F)(F)F`?
Ab BasE inh: -1.6; LANA-nucl inh: -0.47

How did O=C(OCc1ccccc1)c1ccccc1 do in these assays?
Ab BasE inh: 0.5; LANA-nucl inh: -0.75&-0.17

How did O=C(c1cc2ccccc2oc1=O)N1CCN(Cc2ccc(Cl)cc2)CC1 do in these assays?
Ab BasE inh: -1.5; LANA-nucl inh: 1.4

How did O=C(Cn1cc(-c2ccccc2)nc1SCc1ccccc1)c1ccccc1 do in these assays?
Ab BasE inh: -0.1

What do the screens show for `O=C(OCc1cc(Cl)ccc1OC(F)F)c1ccco1`?
Ab BasE inh: 0.4

Results for O=C1c2ccccc2C(=O)N1COc1ccc(F)cc1Br ?
Ab BasE inh: 1.1

What do the screens show for `COc1c(O)cnn(C(C)(C)C)c1=O`?
Ab BasE inh: 1.5; LANA-nucl inh: -1.4

What do the screens show for `Cc1ccc(N(C(=O)c2ccc3c(c2)OCO3)C2C=CS(=O)(=O)C2)cc1` (stereo not given)?
Ab BasE inh: -2.7; LANA-nucl inh: 1.9

Results for CCn1c(CSc2nc3ccc(C)cc3[nH]2)nc2cc(S(=O)(=O)N(C)C)ccc21 ?
Ab BasE inh: -1.2

Results for CCCNC(=O)CN1Cc2ccccc2C1=O ?
Ab BasE inh: 1.1; LANA-nucl inh: 0.19

How did O=C(CN1CCN(c2ccccc2)CC1)NCc1ccccc1 do in these assays?
Ab BasE inh: 0.4; LANA-nucl inh: 1.5

How did O=C(O)c1ccc2c(c1)OCCCO2 do in these assays?
Ab BasE inh: 0.2

What do the screens show for `CCOc1ccc(NCCC(=O)c2ccc3c(c2)OCO3)cc1`?
Ab BasE inh: -0.3; LANA-nucl inh: -0.53

How did Cc1ccc(NC(=O)c2ccco2)cc1NC(=O)CSc1ncnc2sc3c(c12)CCC3 do in these assays?
Ab BasE inh: -1.6; LANA-nucl inh: -1.1

How did CCn1c(SCC(=O)N2CCc3ccccc3C2)nnc1C(C)NC(=O)c1ccccc1 (stereo not given) do in these assays?
Ab BasE inh: 0.8; LANA-nucl inh: -0.88

How did CC(C)S(=O)(=O)c1cscc1NC(=O)c1ccc(-c2cc(C(F)(F)F)nn2C)s1 do in these assays?
Ab BasE inh: -1.4

Results for Cc1cc(=O)oc2c3c(ccc12)OCC3=O ?
Ab BasE inh: -3.5; LANA-nucl inh: -0.58

How did COc1ccc(C(=O)C[n+]2cc(-c3ccc(OC)cc3)n3c2CCCCC3)cc1 do in these assays?
Ab BasE inh: -23

Results for Cc1cc(C)c2oc(-c3cc(NC(=O)c4ccc(Br)o4)ccc3O)nc2c1 ?
Ab BasE inh: -2.3; LANA-nucl inh: 0.041

What do the screens show for `CCCCn1nnnc1COC(=O)/C(C#N)=C/c1ccc(N(C)C)cc1`?
Ab BasE inh: -0.7

What do the screens show for `NC(=O)COC(=O)c1ccc(Oc2ccccc2)cc1`?
Ab BasE inh: -6.9

What do the screens show for `CSc1nc2nc(-c3ccc4c(c3)CCC4)ccn2n1`?
LANA-nucl inh: -1.4

Results for CCN(Cc1ccccc1)C(=O)c1ccccc1-c1nc(-c2cccc(C)c2)no1 ?
Ab BasE inh: 0.4; LANA-nucl inh: 0.25

What do the screens show for `O=C(O)C(=Cc1ccc(-c2cccc(Cl)c2)o1)C(=O)O`?
Ab BasE inh: 2.6

How did COc1ccc(OCCCN2C(=O)NC(C)(C)C2=O)cc1 do in these assays?
Ab BasE inh: -0.6; LANA-nucl inh: -0.87

How did O=C(Nc1cccnc1)c1cccc(S(=O)(=O)NCc2cccnc2)c1 do in these assays?
Ab BasE inh: 2.4

What do the screens show for `COc1ccc(N/C=C(\C#N)c2ccc(Cl)cc2)cc1`?
LANA-nucl inh: 0.63

Results for N#Cc1ccccc1OCC(=O)c1cccs1 ?
Ab BasE inh: 0.9

What do the screens show for `O=C(c1ccccc1)N1CCN(C(=O)c2ccc(OC(F)(F)F)cc2)CC1`?
Ab BasE inh: -1.8

Results for COc1ccc(CN2C(=O)c3cccnc3C2=O)cc1S(=O)(=O)NC1CC1 ?
Ab BasE inh: 0.0

How did Cc1ccccc1OCc1nnc(SCC(=O)N(Cc2ccccc2)C(C)(C)C)o1 do in these assays?
Ab BasE inh: -0.7; LANA-nucl inh: -0.59

What do the screens show for `Cn1c(=N)n(CC(=O)c2ccc(-c3ccccc3)cc2)c2ccccc21`?
Ab BasE inh: -55; LANA-nucl inh: -0.46

What do the screens show for `Cc1ccc(C)n1CCc1ccccc1`?
Ab BasE inh: 2.3

What do the screens show for `NC(=S)c1ccsc1`?
Ab BasE inh: -2.1

How did O=C(Nc1cccc(C(F)(F)F)c1)c1cccnc1N1CCCC1 do in these assays?
Ab BasE inh: -0.6; LANA-nucl inh: -0.44

How did C/C(=N\NC(=O)C(F)(F)F)c1ccccc1O do in these assays?
Ab BasE inh: -2.3; LANA-nucl inh: 2.1

Results for FC(F)(F)c1cc(-c2ccc3c(c2)OCO3)nc(=S)[nH]1 ?
Ab BasE inh: -2.4; LANA-nucl inh: 2.1

Results for Cc1[nH]n2c(=O)cc(-c3ccccc3)nc2c1-c1ccccc1 ?
Ab BasE inh: -1.3; LANA-nucl inh: -0.37

How did O=C(Nc1ccc(F)cc1)N1CCN2C(=O)c3ccccc3C12c1ccccc1 (stereo not given) do in these assays?
Ab BasE inh: 1.4; LANA-nucl inh: 1

What do the screens show for `O=C1C2CC=CCC2C(=O)N1Cc1cc(=O)n2ccsc2n1` (stereo not given)?
Ab BasE inh: 1.6

Results for S=C(NCCN1CCOCC1)NNc1ccc2ccccc2c1 ?
Ab BasE inh: 1.3

How did CC1=C(C(=O)Nc2ccc(C)cc2)C2(CCN(C(C)C)CC2)OC1=O do in these assays?
Ab BasE inh: -3.6

Results for CC(Oc1ccccc1)C(=O)OCc1nnc(-c2ccc(F)cc2)o1 (stereo not given) ?
Ab BasE inh: 1.6

Results for NC(=O)c1nsc(C(=O)N(CC(=O)NCc2ccc3c(c2)OCO3)C2CCCCC2)c1N ?
Ab BasE inh: 0.8; LANA-nucl inh: 0.11

Results for C(=NC1CCCCCCCCCCC1)c1ccco1 ?
Ab BasE inh: -0.7

Results for O=C(Nc1ccc(N2CCOCC2)cc1)C12CC3CC(CC(C3)C1)C2 ?
Ab BasE inh: -0.1; LANA-nucl inh: -0.65

What do the screens show for `O=C(/C=C/O)c1cccc(OCc2ccc(Cl)cc2Cl)c1`?
LANA-nucl inh: -0.38

What do the screens show for `Cc1nc2ccccc2c(=O)[nH]1`?
Ab BasE inh: 3.4; LANA-nucl inh: 0.19

Results for C#CCOc1ccc(OC)cc1/C=C(/C#N)c1ccc(C#N)cc1 ?
Ab BasE inh: 2.3; LANA-nucl inh: 0.59

What do the screens show for `CCc1ccc(S(=O)(=O)NCc2cn3ccsc3n2)cc1`?
Ab BasE inh: -1.7; LANA-nucl inh: 0.4

How did O=C(NN1C(=O)/C(=C\c2cccnc2)SC1=S)c1ccccc1 do in these assays?
Ab BasE inh: 0.3

Results for CN(C)C(Cc1ccccc1)C(=O)C(C)(C)C (stereo not given) ?
Ab BasE inh: -0.5

How did COc1cccc(C2C(C(=O)/C=C/c3ccco3)=C(O)C(=O)N2CCN2CCOCC2)c1 (stereo not given) do in these assays?
Ab BasE inh: 0.1; LANA-nucl inh: 0.57

What do the screens show for `Nc1ncnc2c1ncn2C1CCC(CO)C(O)C1` (stereo not given)?
Ab BasE inh: 0.8

What do the screens show for `CN(C(=O)NC(=O)Nc1ccc(Cl)cc1Cl)S(C)(=O)=O`?
Ab BasE inh: 0.7

What do the screens show for `O=C(CC1c2ccccc2CCN1S(=O)(=O)c1ccc(F)cc1)OCC(=O)N1CCCCC1` (stereo not given)?
Ab BasE inh: 0.1

What do the screens show for `Nc1ncnc2c1c1nc3ccccc3nc1n2CCc1ccccc1`?
Ab BasE inh: 0.5; LANA-nucl inh: 0.037

Results for Cc1ccccc1OCc1nnc(SCC(=O)N(C)C)n1-c1ccccc1 ?
Ab BasE inh: -0.2; LANA-nucl inh: -1

How did COC(=O)C1=C(C)Nc2ccccc2S1 do in these assays?
Ab BasE inh: -4.2; LANA-nucl inh: -0.24

Results for O=C(O)CCC(=O)Nc1sccc1C(=O)Nc1ccccc1 ?
Ab BasE inh: 1.6; LANA-nucl inh: 0.33

How did CCN1CCN(CC(=O)NC23CC4CC(CC(C4)C2)C3)CC1 do in these assays?
Ab BasE inh: 0.2; LANA-nucl inh: -0.6

Results for Cn1cnnc1Sc1ccc(Cl)cc1NC(=O)c1cc2ccccc2o1 ?
Ab BasE inh: 0.6

How did CCN(CC)C(=O)C1C(=O)N(C)C2(C)CC1c1ccccc1O2 (stereo not given) do in these assays?
Ab BasE inh: 0.4; LANA-nucl inh: 0.06

How did Cc1nn(-c2ccccc2)c2sc(C(=O)N/N=C/c3ccccc3)cc12 do in these assays?
Ab BasE inh: -2.4; LANA-nucl inh: 1.2

How did CCNc1ccc(S(=O)(=O)C(F)(F)F)cc1NC(=O)CC#N do in these assays?
Ab BasE inh: -0.5

In the list so far, these contain an aryl thioether with sulfur outside any ring.
How did O=C(Cn1cc(-c2ccccc2)nc1SCc1ccccc1)c1ccccc1 do in these assays?
Ab BasE inh: -0.1

Results for CCn1c(CSc2nc3ccc(C)cc3[nH]2)nc2cc(S(=O)(=O)N(C)C)ccc21 ?
Ab BasE inh: -1.2

How did Cc1ccc(NC(=O)c2ccco2)cc1NC(=O)CSc1ncnc2sc3c(c12)CCC3 do in these assays?
Ab BasE inh: -1.6; LANA-nucl inh: -1.1

How did CCn1c(SCC(=O)N2CCc3ccccc3C2)nnc1C(C)NC(=O)c1ccccc1 (stereo not given) do in these assays?
Ab BasE inh: 0.8; LANA-nucl inh: -0.88

What do the screens show for `CSc1nc2nc(-c3ccc4c(c3)CCC4)ccn2n1`?
LANA-nucl inh: -1.4

How did Cc1ccccc1OCc1nnc(SCC(=O)N(Cc2ccccc2)C(C)(C)C)o1 do in these assays?
Ab BasE inh: -0.7; LANA-nucl inh: -0.59

Results for Cc1ccccc1OCc1nnc(SCC(=O)N(C)C)n1-c1ccccc1 ?
Ab BasE inh: -0.2; LANA-nucl inh: -1

Results for Cn1cnnc1Sc1ccc(Cl)cc1NC(=O)c1cc2ccccc2o1 ?
Ab BasE inh: 0.6

Further results.
What do the screens show for `CCOC(=O)N1CC=C2C(C#N)=C(N)C(C#N)(C#N)C(CC)C2C1` (stereo not given)?
Ab BasE inh: -3.0; LANA-nucl inh: 0.038

What do the screens show for `CC(C)(C)c1oc2cc(Br)c(O)cc2c1C(=O)O`?
Ab BasE inh: -1.0; LANA-nucl inh: -0.33

Results for COc1ccc(CCn2c(=O)[nH]c3cc(C(=O)NCc4ccco4)ccc3c2=O)cc1OC ?
Ab BasE inh: -0.3; LANA-nucl inh: -1.7

How did Cn1c(CNC(=O)c2ccc(Cl)cc2)nnc1SCC(=O)N1CCc2ccccc2C1 do in these assays?
Ab BasE inh: 1.4; LANA-nucl inh: 0.66

How did O=C(COC(=O)C1CC2CCCC(C1)C2=O)c1ccc(CC(=O)N2CCOCC2)s1 (stereo not given) do in these assays?
Ab BasE inh: 1.8

How did C[C@H](NS(=O)(=O)c1cccc2nsnc12)C(=O)Nc1cccc(F)c1 do in these assays?
Ab BasE inh: 5.9

Results for COc1cc(NC(=O)C(c2ccccc2)C2CCCC2)cc(C(F)(F)F)c1 (stereo not given) ?
Ab BasE inh: -1.9

What do the screens show for `O=c1[nH]nc(Sc2ncccc2C(F)(F)F)n1C1CCCCC1`?
Ab BasE inh: -0.5; LANA-nucl inh: -0.81

How did O=C(NC(=S)NCC1CCCCC1)c1ccco1 do in these assays?
Ab BasE inh: 0.2

Results for CC(C)C(=O)c1cccs1 ?
Ab BasE inh: 1.2

What do the screens show for `Cc1noc(C)c1-c1nc(CSc2ccccc2)no1`?
Ab BasE inh: -0.5

How did COC(=O)c1cc(-c2ccccc2)n(CC(=O)O)c1C do in these assays?
Ab BasE inh: 2.7; LANA-nucl inh: -0.27

What do the screens show for `Cc1cccc(C)c1NC(=S)N1CCCCC1CO` (stereo not given)?
Ab BasE inh: -1.8

What do the screens show for `O=C(OCC(=O)N1CCN(C(=O)COC(=O)c2ccncc2)CC1)c1ccncc1`?
Ab BasE inh: 0.0

Results for Cc1ccccc1/C=N/NC(N)=S ?
Ab BasE inh: 1.4; LANA-nucl inh: -0.91

Results for Cc1csc(SCC(=O)NCc2cccs2)n1 ?
Ab BasE inh: 2.2

How did Cc1cc(C)c2c(n1)sc1c(=O)n(Cc3ccccc3Cl)nnc12 do in these assays?
Ab BasE inh: 1.9

Results for Cc1ccsc1CNC(=O)c1ccc(Cl)cc1 ?
Ab BasE inh: 3.7

Results for O=C(NCC1CCCO1)c1ccc(-n2ccc3ccccc32)s1 (stereo not given) ?
Ab BasE inh: 0.6; LANA-nucl inh: 0.97

How did Cn1cnnc1SC(C(=O)c1ccccc1)c1ccccc1 (stereo not given) do in these assays?
Ab BasE inh: 0.3

Fetched by structure from above:
Results for CC(Oc1ccccc1)C(=O)OCc1nnc(-c2ccc(F)cc2)o1 (stereo not given) ?
Ab BasE inh: 1.6

How did O=C(NN1C(=O)/C(=C\c2cccnc2)SC1=S)c1ccccc1 do in these assays?
Ab BasE inh: 0.3

These rows are one share of the data; the hit share may differ from the screen's.
